Screening results (PubChem BioAssay)
FGF22 binding: shifts melting point of recombinant human FGF22; Q9HCT0; recombinant FGF22 thermal shift, SYPRO orange fluorescence; percent of sucrose octasulfate shift, DMSO zero; calls only at 9.99 µM; hit rate 1.5% among 340,000;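 active = melting point raised past a set limit in the mean and every replicate; inconclusive = no clear call; three in four hits are not shown here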
Target sequence (Q9HCT0 whole entry, looked up): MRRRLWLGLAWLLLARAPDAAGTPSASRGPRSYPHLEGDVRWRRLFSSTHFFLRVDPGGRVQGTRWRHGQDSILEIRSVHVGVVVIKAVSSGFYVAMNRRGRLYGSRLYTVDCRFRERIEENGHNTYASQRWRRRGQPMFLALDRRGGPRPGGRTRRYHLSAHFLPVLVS
E coli growth: blocks Escherichia coli growth. OD600, 23 h; active compounds read low. OD600 absorbance (test concentration not listed). hit rate 0.21% among 330,000. AID 1053175;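 active = OD600 absorbance below the run mean of sample wells minus 3.6 SD, in any replicate, cut at about 0.56 in these data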;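 also: stock transfer was 300 nL into about 60 µL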
ALR inh: human ALR oxidase inhibition via reduced H2O2. purified ALR, DTT oxidation, H2O2 HRP-luminol luminescence. inhibition, % (no concentration beside the values). hit rate 3.8% among 290,000. P55789;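 active = mean and each replicate at 75% or more; inconclusive = only one of the two met; inactive = neither met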;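 also: stock transfer was 7.5 nL into about 7.5 µL; 0% = neutral wells and 100% = wells with inactivated enzyme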
Target sequence (P55789 whole entry, looked up): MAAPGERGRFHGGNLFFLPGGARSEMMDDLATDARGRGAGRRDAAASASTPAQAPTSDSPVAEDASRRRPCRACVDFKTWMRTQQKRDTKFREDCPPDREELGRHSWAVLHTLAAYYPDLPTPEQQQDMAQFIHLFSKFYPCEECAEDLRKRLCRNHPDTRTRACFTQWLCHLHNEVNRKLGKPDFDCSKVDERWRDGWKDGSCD
Vif TR-FRET: inhibitors of Vif binding to APOBEC3G peptide, primary screen, biochemical, TR-FRET, GST-Vif 1-94, biotin-A3G peptide, dose response retest (AID 1117319). TR-FRET GST-Vif / biotin-A3G peptide binding; higher % means a stronger effect; test concentration not given here; strong numbers were not always called active. one-dose inhibition, %; IC50 in µM for titrated hits. hit rate 0.57% among 260,000;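 active = above the screen mean plus three standard deviations and confirmed in dose response; inconclusive = results disagree or hit not tested in dose response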;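 also: Vif residues 1-94 fused to GST binding biotinylated APOBEC3G peptide 110-148; 0% = full assay without inhibitor and 100% = GST in place of GST-Vif; retest series ran down from 100 µM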
AF4-AF9 inh: MLL-AF4/AF9 protein interaction inhibition | hit rate 0.47% among 350,000 | AlphaScreen, biotin-AF4 peptide binding to FLAG-AF9 | AID 651704 | inhibition, % at 10 µM | P42568;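 active = every replicate reaching a set inhibition limit, whatever the replicate mean, cut at about 25% in these data; inconclusive = mean inhibition reaches that limit but some replicates miss it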;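 also: 0% = plate neutral control median and 100% = total signal loss; the record names both 10 and 1 µM as test concentration; the first replicate is given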
Target sequence (P42568 whole entry, looked up): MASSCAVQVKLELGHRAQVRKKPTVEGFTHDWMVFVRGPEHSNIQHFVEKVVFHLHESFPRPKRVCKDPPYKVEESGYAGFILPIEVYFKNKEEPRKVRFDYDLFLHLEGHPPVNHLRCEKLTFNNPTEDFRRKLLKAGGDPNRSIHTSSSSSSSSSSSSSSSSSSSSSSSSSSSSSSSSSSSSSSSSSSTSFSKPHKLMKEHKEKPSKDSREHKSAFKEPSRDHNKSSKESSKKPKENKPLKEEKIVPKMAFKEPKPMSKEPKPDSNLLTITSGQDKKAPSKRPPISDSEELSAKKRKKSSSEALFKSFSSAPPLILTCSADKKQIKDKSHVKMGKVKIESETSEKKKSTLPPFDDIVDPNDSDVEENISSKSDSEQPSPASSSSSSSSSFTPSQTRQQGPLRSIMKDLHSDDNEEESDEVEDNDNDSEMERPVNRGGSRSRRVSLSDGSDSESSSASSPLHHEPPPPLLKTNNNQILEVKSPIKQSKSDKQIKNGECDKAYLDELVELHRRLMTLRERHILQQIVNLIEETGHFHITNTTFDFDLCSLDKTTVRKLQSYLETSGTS
HNF4A DNA FP: change in binding of human HNF4 alpha to DNA; P41235; HNF4a-FITC DNA binding, fluorescence polarization, 1 h; activity change, % at 10 µM; hit rate 0.3% among 360,000; AID 1224865; in the data active = activity change above about 30%, passing the limit was not always enough;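 also: controls were the assay level and a saturating level of protein; the project sought stronger binding though the title names inhibitors; some compounds called inactive have numbers as strong as hits; positive values seem to mean higher polarization but the record does not say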
rRNA inh HTS: inhibits bacterial ribosomal RNA function over humanized ribosomes; hit rate 1.6% among 350,000; E. coli WT GFP vs humanized-ribosome RFP mutants, fluorescence, 24 h; active compounds read low; DMSO median 0, no signal -100; GFP signal change (wild-type ribosome), % (concentration not given with the values);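 active = significant combined selectivity score with lowered wild-type GFP, culture density cut under 30%, mutant RFP and density less affected; inactive = any of these conditions unmet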; also: one replicate is shown; some compounds called inactive have numbers as strong as hits
rRNA inh HTS OD600: second read-out of rRNA inh HTS, no call of its own (marks repeat the call); OD600 change, %; measured here: OD600 growth;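 optical density of the mix in the first replicate; 0 = DMSO median and -100 = no signal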
rRNA inh HTS RFP: further read-out of rRNA inh HTS, marked with its call; RFP signal change, %; measured here: RFP humanized mutant strains;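 first replicate; 0 = DMSO median and -100 = no signal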
* hit, by the source's call; i = inactive; u = inconclusive; x = no result given; & = joins results of further samples. Some of the compounds tested. The share of hits here may be higher or lower than overall.

Results follow in this order: rRNA inh HTS	Vif TR-FRET	AF4-AF9 inh	FGF22 binding	ALR inh	HNF4A DNA FP	E coli growth	rRNA inh HTS OD600	rRNA inh HTS RFP
> CN1CCN(C2=C(NS(=O)(=O)c3cccs3)C(=O)c3ccccc3C2=O)CC1
  -2	0%	10.0	i	x	-3.0	0.66	-10	6.9
> CC(C)COC(=O)N(C)C[C@H]1OCc2ccccc2-c2ccccc2C(=O)N([C@@H](C)CO)C[C@@H]1C
  0	x	-3.0	i	x	x	x	2	0.0
> C[C@@H]1CN([C@H](C)CO)C(=O)c2cc(NC(=O)Cc3cn(C)c4ccccc34)ccc2O[C@@H]1CN(C)S(C)(=O)=O
  1	x	3.3	i	x	x	x	3	1.7
> CCOc1[nH]n(-c2ccccc2)c(=O)c1C=NCc1ccncc1
  16	x	2.4	i	-26	1.5	0.7	8	0.0
> O=C(c1cccc(F)c1)N1CCN(Cc2ccc3c(c2)OCO3)CC1
  2	4%	-0.8	i	2	3.8	0.65	3	0.1
> CCN(CC)CC(=O)Nc1ccc(C)cc1C(=O)c1ccccc1
  -1	-7%	3.3	i	-2	-1.0	0.66	-3	-0.4
> O=C(O)CC(c1cccc2ccccc12)n1cccc1 (configuration not stated)
  x	u	x	x	-2	-1.6	0.73	x	x
> CCS(=O)(=O)c1nc(S(=O)(=O)c2ccc(C)cc2)c(NCCCn2ccnc2)s1
  11	-7%	-2.8	i	1	3.2	0.7	10	1.4
> CCCCNC(=S)N(C)/N=C/c1ccccc1C(=O)O
  x	-3%	x	x	57	-0.7	x	x	x
> O=C(Nc1cc(S(=O)(=O)N2CCOCC2)ccc1N1CCOCC1)c1cccc(Cl)c1
  -4	-7%	-0.1	i	x	-1.0	x	0	2.7
> C[C@H]1CN([C@@H](C)CO)S(=O)(=O)c2ccc(C3=CCCC3)cc2O[C@H]1CN(C)Cc1ccccc1
  -22	x	11	i	x	x	x	-53	24
> COc1ccc(NC(=O)CCNS(=O)(=O)c2ccc(Br)s2)cc1
  -14	3%	-1.9	i	0	2.9	0.61	-15	-8.7
> CCSC1=NCCN1C(=O)c1ccc(S(=O)(=O)N(CC)CC)cc1
  -5	2%	-2.9	i	-3	-1.4	0.66	-1	0.9
> CCOc1cc(C)c(C(C)C)cc1S(=O)(=O)n1ccc(C)n1
  x	4%	x	x	4	3.3	0.77	x	x
> Cc1ccc(NC(=S)NC(=O)Cc2ccccc2)c(O)c1
  -16	x	1.4	i	-3	-0.5	0.59	-34	-12
> CCOc1cc(/C=C/c2nc3cc(C)c(C)cc3s2)ccc1OCC(=O)N1CCOCC1
  -5	-7%	5.0	i	x	3.2	0.75	-10	1.1
> C=CCc1cc(C)ccc1OCCOCCn1ccnc1
  -18	-14%	5.4	i	1	4.8	0.67	-22	-5.0
> O=C(C[C@H]1CC[C@@H]2[C@H](COC[C@H](O)CN2C(=O)c2ccc(F)cc2)O1)NC1Cc2ccccc2C1
  -5	x	-1.8	i	x	x	x	-6	-3.6
> CS(=O)(=O)N1CCc2cc(C(=O)Nc3ccc(Br)cc3)ccc21
  12	0%	0.4	i	5	3.7	0.65	9	-0.4
> Cc1ccc2nc(NC(=O)C3CCCN(S(=O)(=O)c4cccc5nsnc45)C3)sc2c1 (configuration not stated)
  x	-3%	x	x	6	0.8	0.69	x	x
> C[C@@H]1CN([C@H](C)CO)C(=O)c2cc(NC(=O)Cc3cn(C)c4ccccc34)ccc2O[C@H]1CN(C)S(=O)(=O)c1ccccc1
  1	x	1.1	i	x	x	x	1	-0.5
> C[C@@H]1CN([C@@H](C)CO)C(=O)c2cc(NC(=O)Nc3cccc4ccccc34)ccc2O[C@@H](C)CCCCO[C@H]1CN(C)CC1CCCCC1
  -1	x	0.3	i	x	x	x	-5	-4.0
> O=C(CC[C@H]1O[C@@H](n2ccc(=O)[nH]c2=O)[C@H](O)[C@@H]1O)NCC(c1ccccc1)c1ccccc1
  -1	x	-5.4	i	x	-4.0	x	2	-6.8
> CCSc1nnc(NC(=O)c2cccc(S(=O)(=O)N(C)c3ccc(C)cc3)c2)s1
  x	x	x	x	98*	-4.4	0.74	x	x
> O=C(Nc1ccccc1C(F)(F)F)c1cccnc1
  x	5%	x	x	-1	-3.4	0.69	x	x
> CCCC(=O)Nc1ccc(-c2nc3cc(C)c(C)cc3o2)cc1
  x	0%	x	x	-4	1.5	0.68	x	x
> Cc1cccc(OCC(=O)Nc2nc(-c3ccncc3)cs2)c1
  -3	12%	0.5	i	0	3.7	0.66	-1	5.5
> Clc1ccc(-n2nnc(-c3cccnc3Cl)n2)cn1
  6	-4%	-3.5	i	-2	-3.9	0.7	9	-4.7
> Cc1ccc(-n2nc3c(c2NC(=O)c2ccco2)CS(=O)C3)cc1 (configuration not stated)
  17	7%	-1.0	i	-14	-1.7	0.7	7	2.4
> CCC1(c2ccc(F)cc2)NC(=O)N(CC(=O)NC2CC2)C1=O (configuration not stated)
  11	4%	-0.7	x	x	-5.7	0.64	5	4.2
> Cn1c(SCC(N)=O)nnc1-c1cnccn1
  18	-5%	-2.2	i	3	-2.5	0.68	14	-1.4
> CCC(=O)c1ccc2ncccc2c1
  6	x	-2.9	i	-29	1.6	0.7	-2	-2.2
> CN1CCN(C(=O)CN(C2CCCCC2)S(=O)(=O)c2ccc(Br)cc2)CC1
  7	x	-3.2	i	-3	4.5	0.68	3	-1.0
> CCCN1C2CCCC1CC(NC(=O)c1ccc(Br)cc1)C2 (configuration not stated)
  -9	x	1.9	i	2	-1.7	0.64	2	-5.2
> CC(C)c1nnc(NC(=O)Cc2ccccc2[N+](=O)[O-])s1
  x	3%	x	x	25	-0.2	0.73	x	x
> N#CC1(NC(=O)CN2C(=O)NC(c3ccccc3)(c3ccccc3)C2=O)CCCC1
  -4	-7%	-18	i	0	1.9	0.71	2	-1.3
> O=C(O)c1ccc(CSc2nnc(-c3ccccc3)n2-c2ccccc2)cc1
  -4	11%	0.6	i	x	-1.8	0.75	-4	-2.0
> [O-]/[N+](=C\c1ccccc1)c1ccc(Br)cc1
  17	x	0.7	i	56	-0.8	x	19	-1.1
> CCOc1cccc2c1OC1(C)CC2NC(=O)N1c1cccc(C(=O)NCc2ccccn2)c1 (configuration not stated)
  -1	-4%	-1.1	i	0	-3.5	0.7	0	-0.2
> CCN(C(=S)Nc1ccc(Oc2ccccc2)cc1)c1ccccc1
  x	x	x	x	11	3.2	0.66	x	x
> O=C(COC(=O)COc1ccccc1)Nc1ncc(Cl)cc1Cl
  7	-2%	-0.2	i	x	-4.4	0.68	18	3.2
> Cc1cc(C)c(S(=O)(=O)Nc2c(C)[nH]c(=O)[nH]c2=O)c(C)c1
  8	3%	-3.9	i	10	-1.8	0.68	4	-2.2
> C[C@@H]1CN([C@@H](C)CO)C(=O)c2cc(NC(=O)Cn3cnnn3)ccc2O[C@H]1CN(C)C(=O)NC1CCCCC1
  2	x	-2.9	i	x	x	x	15	2.7
> COC(=O)C1CN(C(=O)COc2ccc(C)cc2)c2ccccc2O1 (configuration not stated)
  8	0%	-1.4	i	-3	-2.4	0.67	-2	0.1
> C[C@@H]1CN([C@H](C)CO)C(=O)c2cc(NC(=O)C3CC3)ccc2O[C@H]1CN(C)Cc1ccc(C(=O)Nc2ccccc2N)cc1
  3	x	0.7	i	x	x	x	2	-0.6
> COc1cc(C(=O)OCC(=O)NC(N)=O)cc(CN2C(=O)c3ccccc3C2=O)c1OC
  6	5%	-1.6	i	-15	-3.4	0.68	12	0.5
> CC(C)Oc1cccc(C(=O)C2CCCN(C(=O)c3ccnn3C)C2)c1 (configuration not stated)
  x	5%	-1.6	i	-13	2.3	0.66	x	x
> COc1ccccc1CN1CC(C(=O)NCc2ccc(C)c(F)c2)CCC1=O (configuration not stated)
  3	x	0.3	i	0	5.5	0.67	2	0.9
> CCCNC(=O)N1[C@H](CO)[C@H](c2ccc(C3=CCCCC3)cc2)[C@@H]1C#N
  -24	x	2.3	i	x	x	x	-61	-4.5
> O=C(O)c1cccnc1Sc1ccccc1Cl
  6	17%	-19	i	x	-0.5	0.72	8	3.7
> Cc1ccc(SCC(=O)NCCC2=CCCCC2)cc1
  x	29%	x	x	-27	-1.1	0.64	x	x
> COc1ccc(-c2ccnc(SCC(=O)N3CCN(c4ccccc4)CC3)n2)cc1
  3	-1%	-7.8	i	x	5.2	0.71	6	-0.5
> COc1ccc(C(=O)NCc2ccccc2C)cc1S(=O)(=O)NC1CCCC1
  -7	x	-4.4	i	-15	-0.4	0.67	-2	1.8
> CCn1c2ccccc2c2cc(NC(=O)c3cccc(OC)c3OC)ccc21
  3	x	5.5	i	-1	1.3	0.73	1	-3.6
> Cc1ccnn1-c1ccc(C(=O)NCC(c2ccco2)N2CCCC2)cc1 (configuration not stated)
  4	0%	2.8	i	0	4.8	0.69	14	0.8
> CCOC(=O)c1ccc(NC(=O)CN2C(=O)CNC2=O)cc1
  x	4%&-5%	x	x	-3	-5.3	0.68	x	x
> O=C(Nc1ccc(C(=O)N2CCCC2)cc1)c1ccccc1
  -2	x	-3.3	i	x	-2.1	x	10	0.1
> O=C(C[n+]1cccc(O)c1)NCc1ccc(Cl)cc1
  3	-2%	-5.6	i	x	0.5	0.64	-3	-1.1
> CCN(CC)S(=O)(=O)c1ccc(C)c(NC(=O)/C=C/c2cccs2)c1
  -17	0%	1.8	i	2	0.1	0.68	-18	9.6

A different layout for four compounds above:
COc1ccccc1CN1CC(C(=O)NCc2ccc(C)c(F)c2)CCC1=O (configuration not stated)
  rRNA inh HTS: 3 | Vif TR-FRET: x | AF4-AF9 inh: 0.3 | FGF22 binding: i | ALR inh: 0 | HNF4A DNA FP: 5.5 | E coli growth: 0.67 | rRNA inh HTS OD600: 2 | rRNA inh HTS RFP: 0.9

CCCNC(=O)N1[C@H](CO)[C@H](c2ccc(C3=CCCCC3)cc2)[C@@H]1C#N
  rRNA inh HTS: -24 | Vif TR-FRET: x | AF4-AF9 inh: 2.3 | FGF22 binding: i | ALR inh: x | HNF4A DNA FP: x | E coli growth: x | rRNA inh HTS OD600: -61 | rRNA inh HTS RFP: -4.5

O=C(O)c1cccnc1Sc1ccccc1Cl
  rRNA inh HTS: 6 | Vif TR-FRET: 17% | AF4-AF9 inh: -19 | FGF22 binding: i | ALR inh: x | HNF4A DNA FP: -0.5 | E coli growth: 0.72 | rRNA inh HTS OD600: 8 | rRNA inh HTS RFP: 3.7

Cc1ccc(SCC(=O)NCCC2=CCCCC2)cc1
  rRNA inh HTS: x | Vif TR-FRET: 29% | AF4-AF9 inh: x | FGF22 binding: x | ALR inh: -27 | HNF4A DNA FP: -1.1 | E coli growth: 0.64 | rRNA inh HTS OD600: x | rRNA inh HTS RFP: x
